# Choline anaer gr – inhibitors of anaerobic choline-dependent gram-negative bacterial growth; Gram-negative bacterium anaerobic choline minimal medium, absorbance growth; hits give low values; many inactives read as strong as hits in the columns shown; calls only; actives 0.2% (n = 55,000); AID 1963822;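 active means growth z-score on choline under -2 at 7 or 20 h with little or no fall on glycerol, limits in tiers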;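 further: stock transfer was 300 nL into about 50 µL; the organism is E. coli; final concentration not given here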
# Choline anaer gr early – second read-out of Choline anaer gr, no call of its own (marks repeat the call); z-score; measured here: choline growth z-score, timepoint 1;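 score of optical density at 7 h as mean of two plates; lower means less growth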
# Starred values were filed as active, the others as inactive; i = inactive. Not all compounds are listed; rates above refer to the full screens.
Choline anaer gr	Choline anaer gr early	molecule
i	-0.5	O=c1[nH]c2cc3c(cc2c(=O)n1CCCc1nc(-c2ccccc2Cl)no1)OCO3
i	-1.2	CCc1nnc2ccc(N3CCN(C(C)C)CC3)nn12
i	0.9	COCCCNC(=O)CSc1nc2ccccc2nc1Cc1ccc(C)cc1
i	-0.51	CCSc1nnc(-c2nn(C)c3c2CN(S(=O)(=O)c2ccc(OC)cc2)CC3)n1CC
i	-1.3	COc1cccc(NC(=O)C2CCCN(S(=O)(=O)c3ccc4c(c3)NC(=O)CO4)C2)c1 (stereo unspecified)
i	-0.25	CC(=O)N1CCCSc2ccc(S(=O)(=O)N3CCC(C)CC3)cc21
i	0.25	CCCCC(=O)OCc1cc(=O)n2nc(C)sc2n1
i	0.56	O=C(Cn1c(=O)nc(-c2ccccc2)c2ccccc21)Nc1ccc(OCc2ccccc2)cc1
i	-0.29	CC(C)c1cc(C(=O)N2CCCC2c2ccc(Cl)cc2)no1 (stereo unspecified)
i	-0.55	CCS(=O)(=O)N1CCN(c2ncnc3c2nnn3-c2ccccc2)CC1
i	-0.37	CCCCNC(=O)CSc1nc(N2CCc3ccccc3C2)nc2ccccc12
i	1.2	CC(C)CSc1nccn2nc(-c3ccc(C(C)C)cc3)cc12
i	-1.9	CC(c1nc2ccccc2[nH]1)N1CCCCC1 (stereo unspecified)
i	-0.07	Cc1nn(C(C)C(=O)NCCc2c[nH]c3ccccc23)c(=O)c2c(C)n(-c3ccccc3)nc12 (stereo unspecified)
i	1.9	C=Cc1ccc(Cn2cc(C(=O)c3ccc(F)cc3)c(=O)c3ccc(C)nc32)cc1
i	-0.2	Cc1ccc(NC(=O)C2CCCN(S(=O)(=O)c3cccc4cccnc34)C2)c(Br)c1 (stereo unspecified)
i	0.17	CCCNc1cc(C)nc2c(C)c(-c3ccc(OC)c(OC)c3)nn12
i	-0.92	O=C(NCC(c1cccnc1)N1CCc2ccccc2C1)c1ccccc1 (stereo unspecified)
i	2.5	COc1cc(=O)n(-c2ccccc2)nc1C(=O)Nc1ccc(Br)cc1F
i	-1.1	Fc1ccc(OCc2nnc3sc(Cc4ccc5c(c4)OCCO5)nn23)cc1
i	1.6	O=C(Nc1ccc2c(c1)OCO2)Nc1ccc(F)c(-c2nnc(-c3ccccc3)o2)c1
i	1.4	Cc1ccc(OCC(=O)Nc2nonc2-c2ccc(OCC(C)C)cc2)cc1
i	-1.1	Cc1cc(C)c2c(n1)sc1c(=O)n(CC(=O)Nc3cc(F)ccc3C)cnc12
i	-0.85	CCS(=O)(=O)c1nc2ccc(NS(=O)(=O)c3ccccc3F)cc2s1
i	-0.4	CC(C)C(=O)Nc1ccc(N(C)C)cc1C(=O)O
i	0.11	O=C1OC(C(O)CO)C(O)=C1O (stereo unspecified)
i	0.45	Cc1ccc(S(=O)(=O)N2CCCC(c3nc(-c4ccc(OC(C)C)cc4)no3)C2)cc1 (stereo unspecified)
i	0.18	CCc1ccc(CNS(=O)(=O)c2cc(-c3nc(C(C)(C)C)cs3)cs2)cc1
i	-0.17	CCc1ccc(S(=O)(=O)c2cnc(N3CCC(C(N)=O)(N4CCCCC4)CC3)nc2N)cc1
i	-0.44	CCOC(=O)C1CCCN(C(=O)Cn2c(=O)c3ccccc3n3c(=S)sc(-c4ccccc4F)c23)C1 (stereo unspecified)
i	-0.22	O=C(CCC(=O)N1CCc2cc(S(=O)(=O)NCCN3CCOCC3)ccc21)N1CCCC1
i	-0.17	Cc1ccc(CN2CC(=O)N(c3ccc(C)c(C)c3)[C@@H]3CS(=O)(=O)C[C@@H]32)cc1
i	-0.36	Cc1c(NC(=O)c2ccccc2Cl)cccc1-c1nc2ccccc2s1
i	1.9	CCOc1ccccc1NC(=O)C1CCCN(S(=O)(=O)Cc2ccccc2Cl)C1 (stereo unspecified)
i	0.69	CCSc1nnc(-c2nn(C)c3c2CN(S(=O)(=O)c2cc(C)cc(C)c2)CC3)n1CC
i	1	Cc1cc(=O)n2nc(N3CCC(C(=O)Nc4c(C)cccc4C)CC3)sc2n1
i	-0.14	O=C(c1cnc2cc(-c3ccccc3)nn2c1)c1cc(Cl)ccc1O
i	0.03	CCCOc1ccc(CN2CCCC2c2cc(C)on2)cc1 (stereo unspecified)
i	0.6	COc1ccc(-n2nnc3c(N4CCN(S(C)(=O)=O)CC4)ncnc32)cc1
i	-0.01	CCOC(=O)c1c(C)[nH]c(C)c1S(=O)(=O)N1CCC(C(=O)N2CCN(c3ccc(F)cc3)CC2)CC1
i	-0.02	CCc1ccc(NC(=O)N2CCN(Cc3cc(=O)n4nc(-c5ccccc5)sc4n3)CC2)cc1
i	-0.92	CN(C)c1ccc(C(CNC(=O)c2ccc(Br)cc2)N(C)C)cc1 (stereo unspecified)
i	0.34	Cc1ccc(C2CC(=O)Nc3c2c(C)nn3-c2ccc3nncn3n2)cc1 (stereo unspecified)
i	-0.12	c1cc(CN2CCC(N3CCCCC3)CC2)n(-c2nnc(N3CCCCC3)s2)c1
i	-0.19	Cc1c(C(=O)Nc2ccc(F)cc2F)sc2ncnc(N3CCN(C)CC3)c12
i	-0.13	Cc1ccc2oc(N3CCCN(C(=O)c4ccc(-c5noc(C6CC6)n5)cc4)CC3)nc2n1
i	-0.75	O=c1n(CCOc2ccccc2)nc2c(S(=O)(=O)N3CCCCCC3)cccn12
i	0.87	CCOc1ccc(-c2noc(Cc3nc(-c4ccc(C)cc4)cs3)n2)cc1
i	-0.25	O=C(Cn1c(=O)n(CC2CCC(C(=O)N3CCCCC3)CC2)c(=O)c2sccc21)N1CCCC1 (stereo unspecified)
i	1	Cc1ccc(C)c(S(=O)(=O)N2CCc3cc4cccc(C)c4nc32)c1
i	0.08	O=C(NCc1noc(CCc2ccccc2)n1)c1ccc(-c2noc(C3CC3)n2)cc1
i	0.31	O=C(O)c1ccc(-c2c[nH]c3ncc(-c4ccccc4)cc23)cc1C1CCCC1
i	1	Cc1oc(-c2ccc(Cl)cc2)nc1CSc1nc(C(F)(F)F)cc(=O)[nH]1
i	0.83	CC1(C)O[C@@H]2[C@@H](CO[C@@]3(COS(N)(=O)=O)OC(C)(C)O[C@@H]23)O1
i	-0.01	Cc1noc2c1C(c1ccc(Br)cc1)C1=C(CC(c3ccccc3)CC1=O)N2 (stereo unspecified)
i	1.8	Cn1c(=O)n(-c2ccc(F)cc2)c2nc(-c3ccc(F)c(Br)c3)nc(C(N)=O)c21

# The list continues.
Choline anaer gr	Choline anaer gr early	molecule
i	0.44	CC(=O)N1CCOc2cc(S(=O)(=O)N3CCC[C@@H]3C(=O)NCCc3csc(C)n3)c(C)cc21
i	0.07	CCOC(=O)C1=C(C)NC(C)=C(C(=O)OCC)C1c1ccccc1C=CC(=O)OC(C)(C)C
i	0.85	CCC(C(=O)NCc1ccc(OC)c(OC)c1)N1C(=O)CCCc2ccccc21 (stereo unspecified)
i	-0.07	CCN1CCN(C(=O)CN2CC(C)Sc3ccccc32)CC1 (stereo unspecified)
i	1.6	O=S(=O)(c1ccc2c(c1)OCCO2)N1CCn2cccc2C1c1ccc(F)c(F)c1 (stereo unspecified)
i	1.5	Cc1c(C)n(-c2cc(F)cc(F)c2)c2ncnc(Nc3ccc4c(c3)OCCO4)c12
i	2.4	Cc1csc(-c2cc(S(=O)(=O)Nc3ccc(C)c(F)c3)c(C)s2)n1
i	0.25	CCOC(=O)N1CCC2(CC1)N=C(c1cc(Cl)ccc1O)CC(c1ccc(C)cc1)N2 (stereo unspecified)
i	0.13	CN(CCCNC(=O)CN(c1ccccc1)S(=O)(=O)N(C)C)C1CCCCC1
i	0.11	Cc1cc(C)cc(NC(=O)c2cnc(N(C)C)nc2)c1
i	-0.02	O=C(O)c1cnc(N2CCC(Cc3ccccc3)CC2)c(NS(=O)(=O)c2ccc(F)cc2)c1
i	0.24	COc1ccc2c(c1)NC1(CCN(S(=O)(=O)c3ccc(OC)c(Cl)c3)CC1)c1cccn1-2
i	0.7	O=S(=O)(c1ccc(-c2nnc(C3CC3)o2)o1)N1CCCCC1
i	-0.03	CNS(=O)(=O)c1cn(CC(=O)Nc2ccc(Cl)cc2)cc1S(=O)(=O)NC
i	-0.81	Cc1ccc(C(=O)N2CCN(c3ncnc4c3c(-c3ccccc3)cn4-c3ccccc3)CC2)cc1
i	0.83	C[C@H](N[C@@H](CCc1ccccc1)C(=O)O)C(=O)N1CCC[C@H]1C(=O)O
i	-1.6	CC1CCC2(CC1)NCCN=C2NCc1ccc(Cl)cc1 (stereo unspecified)
i	1.3	COc1cccc(C(=O)Nc2ccc(-c3nc(C)no3)cc2)c1
i	0.3	CC(C)c1cc(C2CCCN2Cc2ccccc2)no1 (stereo unspecified)
i	0.17	COc1cn(CC(=O)NC2CCCCC2)c(CN2CCCCC2)cc1=O
i	1.7	COc1ccc(NC(=O)Cc2noc3ccccc23)cc1Cl
i	1.6	Cc1nc(-c2ccc(N3CCN(C(=O)Nc4ccc(C)c(C)c4)CC3)cc2)no1
i	0.88	Cc1c(C2=CCN(S(=O)(=O)c3ccc(Cl)cc3)CC2)c2ccccc2n1Cc1ccccc1
i	-0.14	CCOc1ccc(NC(=O)Cn2nc3ccc(S(=O)(=O)C(C)(C)C)nn3c2=O)cc1
i	0.84	Cc1nc(CN2C(=O)COc3ccc(S(=O)(=O)NC(C)(C)C)cc32)no1
i	0.54	Cc1cc2c(cc1NC(=O)c1sc3ccccc3c1Cl)n(C)c(=O)c(=O)n2C
i	0	Cc1ccc(Cl)cc1NC(=O)Nc1ccc(OCc2cc(=O)n3ccccc3n2)cc1
i	0.23	Cn1c(=O)c2c(nc(Sc3nnc(NC(=O)c4ccc(Br)cc4)s3)n2C)n(C)c1=O
i	0.11	CC(=O)N1CC(C)(C)c2cc(S(=O)(=O)NC3CC3)ccc21
i	0.02	Cc1nnc(-c2cc3ccccc3n2CC(=O)N2CCCc3ccccc32)o1
i	0.22	Cc1ccc2oc(-c3nnc(C(=O)NC4CCCC4)o3)c(C)c2c1
i	1	Cc1ccc(NS(=O)(=O)c2ccc3[nH]c4c(c3c2)CCCCC4)nc1
i	-0.43	Cc1nnc2c(N3CCC(Cc4ccccc4)CC3)nc3ccccc3n12
i	-0.72	CCOC(=O)c1ccc(NC(=O)N2CCN(Cc3nc(-c4ccc(OCC)cc4)oc3C)CC2)cc1
i	-0.33	Cc1[nH]c(C)c(S(=O)(=O)N2CCc3ccccc3C2)c1C(=O)N1CCCCC1
i	0.23	O=C(c1nsc2ccccc12)N1CCCCC1
i	0.95	CCOc1ccc(NC(=O)CCC(=O)N2CCCCc3ccccc32)cc1
i	-1.4	CCCSc1c(CC)cnc2c1c(=O)n(C)c(=O)n2C
i	-0.28	CCC(=O)Nc1c(C)noc1/C=C/c1ccc(S(=O)(=O)N2CCC(C)CC2)s1
i	-1.3	Cc1ccc(NC(=O)c2sc(=S)n3c2[nH]c(=O)c2cc(Cl)ccc23)cc1

# Overlap with the part before: 5 compounds; new compounds follow.
Choline anaer gr	Choline anaer gr early	molecule
i	0.23	O=C(c1nsc2ccccc12)N1CCCCC1
i	0.95	CCOc1ccc(NC(=O)CCC(=O)N2CCCCc3ccccc32)cc1
i	-1.4	CCCSc1c(CC)cnc2c1c(=O)n(C)c(=O)n2C
i	-0.28	CCC(=O)Nc1c(C)noc1/C=C/c1ccc(S(=O)(=O)N2CCC(C)CC2)s1
i	-1.3	Cc1ccc(NC(=O)c2sc(=S)n3c2[nH]c(=O)c2cc(Cl)ccc23)cc1
i	-0.24	Cc1cc(Cc2ccc(S(=O)(=O)N3CCN(C)CC3)cc2)c(=O)[nH]n1
i	-0.96	Cc1oc2ncnc(N3CCC(C(=O)NCc4ccccn4)CC3)c2c1C
i	0	C=CCn1nc(SC(C)C)n2c(=O)c3c(nc12)-c1ccccc1CC3(C)C
i	0.63	COc1ccc(CCNC(=O)Cn2ccn3nc(-c4ccc5c(c4)OCO5)cc3c2=O)cc1OC
i	0.66	COc1ccc(CN2CCCC2c2cc(C(C)C)on2)cc1O (stereo unspecified)
i	-1.5	O=S(=O)(c1ccc(Cl)cc1)n1nc(-c2cccnc2)nc1NCc1ccccc1
i	-0.66	Cc1ccccc1S(=O)(=O)Nc1cccc(C(=O)N2CCC(C(=O)NCCC(C)C)CC2)c1
i	0.63	CC(C)CCn1c(CCCC(=O)N2CCN(c3ncccn3)CC2)nc2cccnc21

# Sorted by molecular weight (falling): some entries from above
Choline anaer gr	Choline anaer gr early	molecule
i	-0.66	Cc1ccccc1S(=O)(=O)Nc1cccc(C(=O)N2CCC(C(=O)NCCC(C)C)CC2)c1
i	0.63	CC(C)CCn1c(CCCC(=O)N2CCN(c3ncccn3)CC2)nc2cccnc21
i	-0.96	Cc1oc2ncnc(N3CCC(C(=O)NCc4ccccn4)CC3)c2c1C
i	-0.24	Cc1cc(Cc2ccc(S(=O)(=O)N3CCN(C)CC3)cc2)c(=O)[nH]n1
i	0.66	COc1ccc(CN2CCCC2c2cc(C(C)C)on2)cc1O (stereo unspecified)

# New compounds follow:
Choline anaer gr	Choline anaer gr early	molecule
i	0.56	Cc1noc(C)c1C1CCCN1Cc1ccncc1 (stereo unspecified)
i	-0.03	Fc1ccc(-c2noc(-c3ccc(N4CCCC4)nn3)n2)cc1
i	0.16	Cn1c(=O)n(C)c2cc(N3CCCC3)c(NC(=O)Nc3ccccc3)cc21
i	-3.5	OCCNCc1ccc(-c2ccc(Cl)cc2Cl)o1
i	-0.17	COc1ccccc1N1CCN(C(=O)CSc2nc(-c3ccccc3)no2)CC1
i	-0.89	CCn1nnc2c(NC3CCCCC3)ncnc21
i	-0.64	CCCNC(=O)C1CCCN1S(=O)(=O)c1cc(C(=O)OCC)n(C)c1 (stereo unspecified)
i	1.1	CCOc1ccc(C(=O)NCc2noc(-c3cccc(C)c3)n2)cc1
